# Screens: PubChem, National Center for Advancing Translational Sciences (NCATS)
# NPR1 antag – human Npr1 receptor antagonism; Potency, µM (doses to about 46.3 µM), inactives show at the highest dose activity change, negative = inhibition, actives largely listed as inhibitors; P16066; HEK293 hNpr1 GloSensor cGMP, ANP-stimulated luminescence; 1.6% of 76,000 active; active = well fitted inhibition curve with a large enough effect; inconclusive = small, poorly fitted or top-dose-only effect; inactive = no such curve, though single readings can be large or run the other way;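 also: nearly all actives have a fitted effect of over 60% in size; nearly all hits also lower the signal before the agonist is added; a reference antagonist and vehicle were the controls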
# Target sequence (P16066 whole entry, looked up): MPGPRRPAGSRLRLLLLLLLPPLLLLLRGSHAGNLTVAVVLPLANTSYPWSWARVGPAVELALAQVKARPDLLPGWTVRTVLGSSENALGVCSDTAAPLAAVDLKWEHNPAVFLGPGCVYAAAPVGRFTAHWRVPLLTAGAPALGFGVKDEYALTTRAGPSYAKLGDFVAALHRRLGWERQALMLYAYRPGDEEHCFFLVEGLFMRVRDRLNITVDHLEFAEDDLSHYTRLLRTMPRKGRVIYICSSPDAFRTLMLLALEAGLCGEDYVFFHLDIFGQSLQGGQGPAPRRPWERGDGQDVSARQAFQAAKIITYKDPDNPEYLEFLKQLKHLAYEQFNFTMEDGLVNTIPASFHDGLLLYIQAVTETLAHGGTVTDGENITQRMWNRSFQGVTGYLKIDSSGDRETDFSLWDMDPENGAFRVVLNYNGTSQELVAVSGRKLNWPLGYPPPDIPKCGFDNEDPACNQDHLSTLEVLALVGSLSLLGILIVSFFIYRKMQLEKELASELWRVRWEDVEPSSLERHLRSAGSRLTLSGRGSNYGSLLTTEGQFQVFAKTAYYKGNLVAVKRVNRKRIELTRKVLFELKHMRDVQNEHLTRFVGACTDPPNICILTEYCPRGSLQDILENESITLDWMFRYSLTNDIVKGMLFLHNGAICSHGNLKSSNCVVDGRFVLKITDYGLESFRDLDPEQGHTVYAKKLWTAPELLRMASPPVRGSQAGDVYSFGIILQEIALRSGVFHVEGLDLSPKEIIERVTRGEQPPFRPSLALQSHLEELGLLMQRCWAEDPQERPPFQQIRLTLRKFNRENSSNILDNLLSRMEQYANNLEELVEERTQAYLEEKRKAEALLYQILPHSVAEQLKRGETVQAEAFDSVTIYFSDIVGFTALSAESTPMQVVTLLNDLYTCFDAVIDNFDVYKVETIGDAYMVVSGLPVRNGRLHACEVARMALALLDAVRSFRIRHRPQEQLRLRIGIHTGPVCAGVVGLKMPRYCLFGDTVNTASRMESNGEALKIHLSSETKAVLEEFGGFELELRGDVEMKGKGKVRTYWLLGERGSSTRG
#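 Compound pre-incubated 30 min at room temperature on GloSensor-loaded HEK293 cells stably carrying hNpr1 and the pGS-40F cGMP biosensor. Stimulation uses hNppA at 0.1 nM final; luminescence is taken at baseline and 20 min post-agonist.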
# An asterisk follows results filed as active; ? = inconclusive; [ ] = dose if it differs, or a comment. % is scaled to controls: 0 for no effect and ±100 for the full control effect; potency is read from the fitted curve at half-maximal effect. Not all compounds are listed. The share of hits here may be higher or lower than overall.
# The first two records, to show the layout:
Molecule	NPR1 antag
CN(C)c1ccc(CN2Cc3[nH]cnc3C[C@H]2C(=O)N2CCC(Cc3ccccc3)CC2)cc1	-3.1%
COc1ccc(C(=O)N2CCCCCCNC(=O)[C@@H]3CCCC[C@@H]32)cn1	-0.1%

# All compounds of this part, repeating the preview:
Molecule	NPR1 antag
CN(C)c1ccc(CN2Cc3[nH]cnc3C[C@H]2C(=O)N2CCC(Cc3ccccc3)CC2)cc1	-3.1%
COc1ccc(C(=O)N2CCCCCCNC(=O)[C@@H]3CCCC[C@@H]32)cn1	-0.1%
COc1cccc(NC(=O)[C@@H]2C[C@H](c3ccc(F)cc3)N([S+](=O)([O-])C3CC3)C2)c1	2.1%[70.6 µM]
COc1ccc(NC(=O)N2c3ccccc3CC2c2nc(C3CC3)no2)cc1OC (centres undefined)	-0.3%
O=C(CCC1CCN(C(=O)c2ccccc2)CC1)Nc1ccc(F)cc1	-9.8%
O=C(NCc1cccc(F)c1)c1cnc2c(c1)N(Cc1ccccc1)CCC2	-3.6%[70.6 µM]
CCCC(=O)N1C[C@@H]2CCCN3CCC[C@@H]([C@H]23)[C@H]1CCCC(=O)NCC1CC1	-6.5%
Cc1nnsc1C(=O)N[C@H]1CCN(C(=O)c2ccco2)[C@H](C(=O)N[C@@H](Cc2cccs2)C(N)=O)C1	0.9%
CCOc1ccccc1NC(=O)Cn1c(N(C)Cc2ccccc2)nc(C)cc1=O	-13.0%
Cn1cc(CC(=O)N2CCCc3ncc(C(=O)Nc4cccc(Cl)c4)cc32)c2ccccc21	-24.1%
CC(=O)Nc1cccc(C(=O)NC2CCCN(c3cc(-c4ccc(F)cc4)[nH]n3)C2)c1 (centres undefined)	-1.3%
CCCN1C(=O)Cc2cc(C(=O)NCc3ccccc3C(F)(F)F)ccc21	-6.9%
Cc1cc(C(=O)N2CCC(Cc3nc(-c4ccccc4)n[nH]3)C2)n(C)n1 (centres undefined)	-6.5%
C[C@@H]1CN(C(=O)Cc2c(F)ccc(Cl)c2F)CC[C@]1(C)O	12.6%
CNC(=O)N1CCC(n2c(C)cnc2-c2cccnc2)CC1	1.4%
O=C1CO[C@H]2CCN(Cc3cccnc3)CC[C@@H]2N1Cc1ccccc1	-6.1%[70.6 µM]
Cc1ccc(Cn2c(=O)c(-c3noc(C)n3)c3n(c2=O)CCCCC3)cc1	10.8%
COCC(=O)N1CC[C@@H](CC(=O)O)[C@@H](CC2=NCCc3ccc(C)cc32)C1	2.2%[70.6 µM]
CN(C(=O)Cc1ccccn1)C1CCCc2ccccc21 (centres undefined)	-2.3%[70.6 µM]
COc1ccccc1CN1CC(c2noc(CC3CCCC3)n2)CC1=O (centres undefined)	1.0%
CNC(=O)[C@@H]1CN(C(=O)CCc2nc3ccccc3s2)C[C@H]1c1n[nH]c(C)n1	-0.3%
COCCNC(=O)c1cn2cc(-c3cccc(Cl)c3)n(CC=C(C)C)c(=O)c2n1	0.8%
COc1ccc(C(=O)N2CCCC(Cc3ncc(C)n3Cc3ccccc3)C2)c(OC)c1 (centres undefined)	-3.3%
O=C(O)c1ccc(CN2C[C@H](O)C[C@H]2c2nc(-c3ccccc3)no2)cc1	-1.4%[70.6 µM]
COc1ccccc1C(=O)Nc1ccc([C@H]2OCC(=O)N(Cc3cccnc3)[C@@H]2CO)cc1	4.6%
CC(=O)NC[C@H]1CCN(S(=O)(=O)c2ccc(F)c(Cl)c2)C[C@H]1N(C)C	0.2%
CC(C)(C)NC(=O)N1CCOc2ccc(CN3CCc4ccccc4C3)cc2C1	4.3%
Cc1ccccc1C(=O)N1CCC2(CC1)CN(c1ncccn1)CC2CO (centres undefined)	5.4%
NC(=O)c1cccc(-c2ncc3c(n2)OCCN(Cc2ccccc2)C3=O)c1	1.9%[70.6 µM]
COc1cccc(CN2CCOC3(CCN(Cc4ccc(C#N)cc4)CC3)C2=O)c1	?
O[C@H]1CC[C@@H](Cc2cc(-c3ccccc3)on2)O[C@@H]1CNC1CCNCC1	-4.2%[70.6 µM]
CCCn1ccnc1-c1c(-c2ccccc2)ncn1CC(O)COCC (centres undefined)	1.4%
Cc1cc(Cl)ccc1OCC(=O)N1CCc2n[nH]c(=O)n2CC1	-12.0%
COCC(=O)N[C@@H]1CN(Cc2ccccc2C(F)(F)F)C[C@H]1CO	-0.5%
COCCN1C(=O)CS(=O)(=O)C12CCN(C(=O)CCc1ccccc1OC)CC2	-4.1%
CN1C(=O)C(CC(=O)N2CC(n3cccn3)C2)(Cc2ccccc2)c2ccccc21 (centres undefined)	2.4%
COc1nc2nc(CC3CC3)n(C)c2cc1-c1ccnc(C)c1	-4.4%[70.6 µM]
Cc1ccc(NC(=O)N2CCC(OC3CCN(S(C)(=O)=O)CC3)CC2)cc1Cl	?
COc1ccccc1NC(=O)N1CCCC(Cn2c(C)nc3cccnc32)C1 (centres undefined)	2.6%
COc1ccc(-c2nc(CC3CCN(C(=O)c4cc(C)n(C)n4)C3)no2)cc1 (centres undefined)	?
COc1cc(Cl)c(CN2C[C@H](NC(C)=O)[C@@H](C3CC3)C2)c(OC)c1	-1.3%
Cn1ccc(C(=O)N2CC(COc3ccccc3)C3(C2)CN(c2ccccc2)C3)n1 (centres undefined)	-1.3%[70.6 µM]
O=C1CCN(C(=O)C2CCN(C(=O)NCc3ccccc3)CC2)CCCCCCN1	-1.8%
O=C(NCCc1cnccn1)[C@H]1CNC[C@@H](C(=O)N2CCOCC2)C1	-0.2%
O=C(NC1CCN(C(=O)N2CC3CC(C2)[C@H]2CCCC(=O)N2C3)CC1)c1ccccn1 (some centres undefined)	1.1%
CC(NC(=O)OCc1ccccc1)c1nc2cccnc2n1C1CCCCC1 (centres undefined)	15.5%
CC(C)CC(=O)N1CCCN(C(=O)C2CC2)c2ccccc21	-8.1%
CC(C)NC(=O)NC[C@H]1O[C@@H](CC(=O)N2CCc3ccccc32)[C@H](O)[C@@H]1O	0.8%[70.6 µM]
O=C([C@@H]1C[C@H](Oc2cccnc2)CN1C(=O)c1ccccn1)N1CCOCC1	-5.5%
CC[C@H]1CN(S(C)(=O)=O)CC[C@H]1CC(=O)NCCOC	0.4%[70.6 µM]
Cc1cccc(C(=O)N2CCC(Oc3ncccc3C(N)=O)C2)c1 (centres undefined)	0.2%
CNC(=O)[C@@H]1CN(C(=O)c2occc2C)C[C@H]1COC	-14.8%
O=C(OCc1ccccc1)N1CCOCC12CCN(Cc1cccs1)CC2	2.9%[70.6 µM]
Cc1cc(C(F)(F)F)n2ncc(C(=O)N3C[C@@H](C)[C@](O)(C4CCC4)C3)c2n1	1.0%
Cc1cc(=O)n(CC(=O)NC(C)C)c(N2CCc3ccccc3C2)n1	3.8%
O=C(c1cnccn1)N1CCC2(CC1)CC(N(Cc1ccc(F)cc1)C1CC1)CCO2 (centres undefined)	-4.4%
O=C(c1cc(Cl)ccc1F)N1CCC(n2cc(-c3nc(-c4ccccc4)no3)nn2)C1 (centres undefined)	?
COc1ccc(C(C)NC(=O)c2cc(NC(C)=O)cc3nc(C)ccc23)cc1 (centres undefined)	0.1%
CCn1c(C2CCCNC2)nn(Cc2ccc(C(=O)NC)o2)c1=O (centres undefined)	-7.1%
Cc1cccc(N2CCN(C(=O)CN3CC4(CCCCC4)CC3=O)CC2)n1	0.7%

# Following part.
Molecule	NPR1 antag
Cc1ccc(C(=O)NC(C(=O)N2CCCC2)C2CCN(C(=O)c3ccc(F)cc3)CC2)cc1 (centres undefined)	0.2%
COc1ccc(F)cc1S(=O)(=O)N[C@@H]1CN(C)C[C@H]1CN(C)C	-0.4%
O=C(Nc1ccc(F)cc1)c1ccc2cncn2c1	4.4%[70.6 µM]
Cc1cccc(CNC(=O)c2c(C)noc2-c2ccc3c(c2)OCO3)c1	-2.9%
C=C(C)CN(CC)Cc1ccc(=O)n(CCOC)c1	1.4%
CN(Cc1ccc(F)cc1)C1CCOc2ccccc21 (centres undefined)	7.4%[70.6 µM]
Cc1ccc(CN2CCCCCCNC(=O)CC2)s1	-0.8%
O=C(NC1CC1)[C@@H]1C[C@H](Oc2cccnc2)CN1C(=O)C1CCC1	3.0%
Cn1cccc1CN1CCC(C2CCN(S(C)(=O)=O)CC2)C1 (centres undefined)	-3.8%
CC(=O)N1CCC(C(=O)N2CCCN(S(=O)(=O)c3ccccc3)CCC(=O)NCC2)CC1	4.1%
CC(=O)N1CCN(C(=O)C2CCCN(c3nc4ncccc4o3)C2)CC1 (centres undefined)	19.2%[70.6 µM]
C=C(C)CCC(C)N1CCC(N2CCC(C(=O)NCc3ccccn3)CC2)CC1 (centres undefined)	-1.0%
Cc1nn(-c2ccc(C(C)(C)C)cc2)c(C)c1[C@@H]1C=C[C@@H](NC(=O)c2ccc(N(C)C)cc2)C1	-13.2%
CNC(=O)[C@H]1C[C@H](Oc2ccccc2)CN1C(=O)Nc1ccc2c(c1)OCCO2	-2.5%
CC(=O)N1CCc2cc(S(=O)(=O)NCCCC(=O)N3CCC(CCOc4ccccc4)C3)ccc21 (centres undefined)	5.62µM*
O=C(NCc1ccccc1F)c1cc(Br)cn2ccnc12	-0.7%
COC1C(=O)N(C2CCN(C(=O)c3ccncc3)CC2)C12CCOCC2 (centres undefined)	0.5%
CN1C(=O)Cc2ccccc2C1C(=O)NC1CCCC1 (centres undefined)	-0.2%
O=C(c1csc(Cc2ccccc2)n1)N1CCC2(CCCNC2)C1 (centres undefined)	-4.7%
COCCOC(=O)C1=C(C)N=C2SC=C(CC(=O)Nc3cccc(OC)c3)N2C1c1ccccc1 (centres undefined)	-14.1%
CC(C)(C)c1ccc(-c2cc(C[C@H]3CNCC[C@H]3CC(=O)N3CCC(n4c(=O)[nH]c5ccccc54)CC3)no2)cc1	-1.1%
Cn1ccc(NC(=O)C2(C)CCCc3cnc(Nc4ccccc4)nc32)n1 (centres undefined)	8.0%[70.6 µM]
Cn1cnc2cc(-c3ccc(N4CCOCC4)cc3)cc(C(=O)NCc3cccnc3)c21	-0.9%[70.6 µM]
COc1cc(F)ccc1-c1ccnc2nc(C(C)C)nn12	0.8%
O=C(c1ccc(CNc2nccc(-c3cccnc3)n2)cc1)N1CCCCC1	-10.0%
Cc1ccc(Cn2c(C3CCN(C(=O)c4ccccc4F)CC3)n[nH]c2=O)cc1	-3.4%
O=C(Cc1ccccn1)N1CCc2nc(-c3ccc(Cl)cc3)nc(-c3ccccc3)c2C1	-1.2%
Cc1ccc(C2=NC3(CCN(C(=O)c4cccc5[nH]ccc45)CC3)ON2)cc1	-17.6%
Cc1nnnn1CCC(=O)NCC1CCN(c2cnn(C)c(=O)c2)C1 (centres undefined)	2.8%
COc1ccccc1CC(=O)N1CCCc2ncc(C(=O)Nc3cccc(Cl)c3)cc21	?
CSc1ccc(NC(=O)c2ccc3c(c2)N(C)C2CCCCN2C3=O)cc1 (centres undefined)	-0.5%
O=c1c2nc(-c3ccoc3)ccc2ncn1-c1ccccc1	3.0%[70.6 µM]
CCS(=O)(=O)Nc1ccc(C(=O)N2CCC3(CCCN(C)C3=O)C2)cc1 (centres undefined)	-0.6%
CCN(CC)Cc1cnc2c(C(=O)NC3CCC(O)CC3)cnn2c1 (centres undefined)	2.3%
COc1cccc(CN2Cc3cc(NC(=O)c4ccc([N+](=O)[O-])cc4)ccc3OCC2=O)c1OC	?
CC(=O)Nc1ccc(CN2CC3(C2)C(=O)N(Cc2cccc(Cl)c2)C(=O)[C@@H]2C[C@@H](O)CN23)cc1	3.3%
Cc1ccc(CN2C(=O)NC3(CCCN(C(=O)c4cc5ccccc5[nH]4)C3)C2=O)cc1 (centres undefined)	-3.8%
CCN(CC)CC[C@H]1CN(C(=O)c2ccc(N(C)C)cc2)CC[C@H]1CC(=O)O	7.5%[70.6 µM]
Fc1ccc(C2Cn3cnc(-c4nc(-c5ccsc5)no4)c3CO2)cc1 (centres undefined)	?
Cc1ccc(OCc2nc(C3CCCN3C(=O)NC(C)C)no2)cc1 (centres undefined)	-1.0%
CCN1CCN(CCNC(=O)c2ccc(N3CC4CC(C3)[C@H]3CCCC(=O)N3C4)nc2)CC1 (some centres undefined)	-0.8%
Cc1nn(-c2ccc(C(C)C)cc2)c(C)c1[C@@H]1C=C[C@@H](NC(=O)NC(C)C)C1	31.6µM*
COc1ccc(C(=O)NCCC2CCN(C(=O)Nc3cc(F)ccc3F)CC2)cc1	-3.8%
CNC(=O)[C@@H]1C[C@@H](O)CN1C1CCN(C(=O)CCc2ccc(OC)cc2)CC1	-11.4%
O=C(NCc1nnc2cc(-c3nc(C4CC4)no3)ccn12)c1ccccc1Cl	-15.4%
Cc1ccc(NC(=O)N[C@H]2C[C@@H](c3nc(-c4ccc(F)cc4)no3)N(C)C2)cc1	-17.4%[70.6 µM]
COCCN1CC2(CCCN(Cc3ccc4cccc(F)c4n3)C2)CCC1=O (centres undefined)	3.5%
CCCc1cc(C(=O)NCCc2nc(-c3ccccn3)no2)n[nH]1	3.7%
O=C(CCc1ccc(O)cc1)N1CCN(Cc2ccccc2)CC(O)C1 (centres undefined)	0.8%
CC(C)N(C)Cc1nnnn1CC(=O)NCc1nncn1C1CCCCC1	0.4%
Cc1noc2c(NCCN3CCOCC3)cc(-c3ccc(Cl)cc3)nc12	-3.4%[70.6 µM]
CC(C)NC(=O)c1ccccc1OCC1CCCNC1 (centres undefined)	5.3%

# Rewritten as labelled records: entries from further up.
Cc1nn(-c2ccc(C(C)C)cc2)c(C)c1[C@@H]1C=C[C@@H](NC(=O)NC(C)C)C1
  NPR1 antag: 31.6µM*

COc1ccc(C(=O)NCCC2CCN(C(=O)Nc3cc(F)ccc3F)CC2)cc1
  NPR1 antag: -3.8%
